Vaccinia mCherry – vaccinia inhibition (mCherry reporter); Vaccinia virus mCherry reporter infection, fluorescence; about a quarter of the inactives have no number; Potency, µM (titrated, usually from 36.5 µM), for the others: at the highest dose activity change, negative = inhibition, actives largely listed as inhibitors; AID 720579; 310,000 compounds, 0.63% hits; active = well fitted inhibition curve with a large enough effect; inconclusive = small, poorly fitted or top-dose-only effect; inactive = no such curve, though single readings can be large or run the other way; tested in A549 cells; also: nearly all actives have a fitted effect of over 35% in size; inactives centre near -10
Vaccinia Venus – inhibitors of vaccinia virus (Venus reporter); Vaccinia virus Venus reporter expression, fluorescence; Potency, µM (series often up to 36.5 µM), without a hit: at the highest dose activity change, negative = inhibition, most hits filed as inhibitors; 330,000 compounds, 0.46% hits; AID 720580; active means well fitted inhibition curve with a large enough effect; inconclusive means small, poorly fitted or top-dose-only effect; inactive means no such curve, though single readings can be large or run the other way; tested in A549 cells; also: nearly all actives have a fitted effect of over 30% in size; inactives centre near -10
Active calls of the source: *; i = inactive; ? = inconclusive; nt = no result given; & = joins results of further samples; [ ] = remark or other dose. % is scaled to controls: 0 for no effect and ±100 for the full control effect; potency is read from the fitted curve at half-maximal effect.

Screens in order – Vaccinia mCherry	Vaccinia Venus
> Clc1ccc(CSc2ncnc3nc[nH]c23)cc1
 : i	-15%
> Cc1ccc(S(=O)(=O)N2CCCCC2)cc1NC(=O)COC(=O)CNC(=O)c1cc(Cl)cc([N+](=O)[O-])c1
 : -13%	-5%
> O=C(CSc1nc(Cc2ccccc2)nc2ccccc12)c1ccc2c(c1)OCCO2
 : -11%	2%
> C=CCN1C(=O)/C(=C/c2ccc(-c3ccc(F)cc3)o2)SC1=S
 : -4%	8%
> Cc1ccc(NC(=O)C2CCCN2c2nn3c(=O)cc(C)nc3s2)cc1 (stereo not given)
 : -15%	-10%
> Cc1ccc(NC(=O)c2ccc(COc3ccccc3Cl)o2)cc1
 : -1%	-11%
> CCCOC(=O)Nc1sc2c(c1C(=O)OCC)CCC2
 : i	-11%
> COc1ccc(C(=O)OCC(=O)NCC2CCCCC2)c(OC)c1
 : -1%	-7%
> COc1ccccc1C(=O)COC(=O)c1ccc(-n2cnnn2)cc1
 : -11%	-7%
> CCN(CCCNC(=O)CSc1cc(=O)n(CC)c2ccccc12)c1ccccc1
 : -15%	-8%
> CC(C)(C)c1cc(C(c2cccnc2)N2CCN(CCO)CC2)cc(C(C)(C)C)c1O (stereo not given)
 : -2%	-28%
> Cc1cccc(CNC(=O)c2cnn(-c3nccc(-c4cccs4)n3)c2C(C)C)n1
 : -23%	-13%
> CC(OC(=O)CCc1nc(=O)c2ccccc2n1C)C(=O)NCc1ccc2c(c1)OCO2 (stereo not given)
 : -4%	-7%
> CCOC(=O)c1cc(C)n(CC2CCC(C(=O)Nc3ccc(C)c(F)c3)CC2)c1C (stereo not given)
 : -27%	-27%
> CCn1cc(C(=O)N2CCN(c3cccc(Cl)c3)CC2)c(=O)c2cc(S(=O)(=O)N3CCC(C)CC3)ccc21
 : ?	-17%
> NNC(=O)c1ccc(CSc2cccc3cccnc23)cc1
 : -5%	-13%
> COc1cccc2cc(C(=O)NCc3ccc(C)cc3)c(=O)oc12
 : -1%	-18%
> COc1ccc(S(=O)(=O)N(CC(=O)Nc2ccc(OC)cc2OC)c2ccc(Cl)cc2)cc1
 : -24%	-18%
> FC(F)(F)c1nnc2ccc(Sc3ccccn3)nn12
 : i	-9%
> Fc1ccc(-n2cc(-c3ccccc3)c3c(NC4CCCCC4)ncnc32)cc1
 : i	-13%
> CCOc1ccc(-c2csc(/C(C#N)=C\c3ccc(O)c([N+](=O)[O-])c3)n2)cc1
 : -4%	-17%
> CC1CCc2nc(N)c(C#N)c(-c3cccn3C)c2C1 (stereo not given)
 : nt	-9%
> CCOC(=O)C(Cc1ccccc1)C(=O)Nc1ccc(N(CC)CC)cc1 (stereo not given)
 : -24%	-2%
> Cn1c(=O)c2cc(NC(=S)NCc3ccccc3F)ccc2n1Cc1ccc(F)cc1
 : i	-17%
> COc1ccc(CN(C)C[C@H]2OCc3cnnn3CCCC(=O)N([C@H](C)CO)C[C@@H]2C)cc1
 : -16%	-14%
> COc1cccc(Cn2c(Oc3cc(C)cc(C)c3)nc3c2c(=O)n(C)c(=O)n3C)c1
 : -14%	2%
> CCn1cc(/C=C(\NC(=O)c2ccccc2Cl)C(=O)NCCCn2ccnc2)c2ccccc21
 : -4%	-2%
> COc1ccc(/C=N\NC(=O)c2sc(N)nc2C)cc1OC
 : -4%	-11%
> COc1ccc(N2CCN(C(=O)c3cc(=O)c4cc(C)c(C)cc4o3)CC2)cc1
 : -9%	-2%
> O=C(NCCc1ccccc1)C1CCC(CNS(=O)(=O)c2ccccc2)CC1 (stereo not given)
 : -9%	-21%[7.34 µM]

(further entries)
Screens in order – Vaccinia mCherry	Vaccinia Venus
> COc1ccc(Nc2sc(C(=O)c3ccccc3)c(N)c2C(=O)Nc2cc(C)ccc2C)c(OC)c1
 : i	-22%
> COc1ccc(N(CC(=O)N2CCCCC2)S(=O)(=O)c2ccc(OC)c(OC)c2)cc1
 : 3%	5%
> O=C1CN(c2ccccc2)C(=S)N1c1ccccc1
 : -15%	-16%
> COc1ccc(/C=C/CN2CCCC(C(=O)c3cc(F)ccc3F)C2)cc1 (stereo not given)
 : -21%	-13%
> O=C1CCN(S(=O)(=O)c2ccc(Cl)cc2)CC1
 : i	-8%
> N#C/C(C(=O)Oc1ccccc1)=C1\C=CC=CN1
 : -16%	-9%
> O=C(O)CSc1nc2ccccc2nc1N1CCCCC1
 : 0%	-6%
> CCOC(=O)C(CC)N1CCN(Cc2ccc(F)cc2)C(=O)C1=O (stereo not given)
 : -3%	2%
> Cc1onc(C(=O)N2CCN(Cc3ccccc3)CC2)c1[N+](=O)[O-]
 : -6%	-1%
> Cc1c(Br)c(C(=O)NCc2cc3cc(Cl)ccc3[nH]2)nn1C
 : -11%	-13%
> C=C[C@@H](C)N(Cc1ccc(OC)cc1)S(=O)(=O)N(Cc1ccccc1)[C@H](C=C)C(C)C
 : -22%	-10%&-16%
> COCc1cccc(-c2csc(C(NC(C)=O)c3ccccc3)n2)c1 (stereo not given)
 : -1%	1%
> NC(=O)C1CCN(C(=O)CCc2ccsc2)CC1
 : -17%	-13%
> O=[N+]([O-])c1ccc2cn(C3OC(CO)C(O)C3O)nc2c1 (stereo not given)
 : -27%	-20%
> O=C(CSc1nc2c([nH]c3ccccc32)c(=O)n1-c1ccccc1)N1CCCCCC1
 : -14%	-8%
> O=C(CSCc1ccc(F)cc1)NCc1ccc2c(c1)OCO2
 : ?	-14%
> CCN1CCN(c2cc(C)c3cc(NC(=S)NCCCN4CCc5ccccc5C4)ccc3n2)CC1
 : ?	-30%
> Cc1cc(NS(=O)(=O)c2ccc(NC(=O)C(C)Oc3cccc(C)c3C)cc2)nc(C)n1 (stereo not given)
 : i	-13%
> COc1cc2c(cc1OC)C(COc1ccccc1OC)N(C(=O)c1ccc(S(=O)(=O)N(C)C)cc1)CC2 (stereo not given)
 : -10%	0%
> CCN(CC)S(=O)(=O)c1ccc2c(c1)N(CC(=O)Nc1c(C)cc(C)cc1C)C(=O)C1CCCN21 (stereo not given)
 : -11%	-16%
> CCc1ccccc1NC(=O)c1cc2sccc2n1C
 : -11%	-7%
> CCOC(=O)N1[C@@H]2C=C(C)[C@@H]2[C@@H]2[C@@H](C)C(=O)N21
 : -14%	-7%
> Cc1cccc(NC(=O)CSc2c3c(nc4ccccc24)CCC3)n1
 : -19%	-20%
> Cc1occc1C(=O)Nc1nnc(-c2cccs2)s1
 : i	-3%
> CCCCCCN1C=CC=C/C1=C/C=C(C#N)C#N
 : -20%	-1%
> O=C(O)c1cc([N+](=O)[O-])ccc1Oc1ccccc1
 : i	-5%
> Cc1ccc(C(=O)N/C(=C\c2ccc(F)cc2)C(=O)NCCCn2ccnc2)cc1
 : -23%	-10%
> O=C(COc1coc(CN2CCN(c3ccccc3F)CC2)cc1=O)Nc1ccccc1
 : i	-1%
> CCN(CC)c1nn2c(=O)c(C(=O)NCc3cccc(C)c3)cnc2s1
 : i	-13%
> CCCn1cnc2c(Sc3c([N+](=O)[O-])ncn3C)nc(N)nc21
 : ?	?

Four compounds out of the list, sorted by length of the SMILES, highest first.
Screens in order – Vaccinia mCherry	Vaccinia Venus
> CCN(CC)S(=O)(=O)c1ccc2c(c1)N(CC(=O)Nc1c(C)cc(C)cc1C)C(=O)C1CCCN21 (stereo not given)
 : -11%	-16%
> C=C[C@@H](C)N(Cc1ccc(OC)cc1)S(=O)(=O)N(Cc1ccccc1)[C@H](C=C)C(C)C
 : -22%	-10%&-16%
> CCN1CCN(c2cc(C)c3cc(NC(=S)NCCCN4CCc5ccccc5C4)ccc3n2)CC1
 : ?	-30%
> NC(=O)C1CCN(C(=O)CCc2ccsc2)CC1
 : -17%	-13%

Carrying on:
Screens in order – Vaccinia mCherry	Vaccinia Venus
> CCC(=O)N1c2ccc(S(=O)(=O)CCC(=O)N3CCN(c4cc(C)ccc4C)CC3)cc2CC1C (stereo not given)
 : -23%	-17%
> CS(=O)(=O)Nc1cccc2cccnc12
 : nt	-11%
> O=C1CCN(Cc2ccco2)C(=S)N1
 : -14%	-4%
> Fc1ccc(NC(=S)NN=Cc2ccccc2Cl)cc1
 : -25%	-2%
> O=C(CSc1oc(-c2ccc(F)cc2)nc1S(=O)(=O)c1ccc(F)cc1)NCC1CCCO1 (stereo not given)
 : 1%	-3%
> Cc1nc(OCC(=O)c2ccc(Cl)cc2)c(C#N)c2c1COC(C)(C)C2
 : i	-14%
> CC(=O)c1ccsc1B(O)O
 : -1%	-10%
> FC(F)(F)c1cc(-c2cccs2)nc(N2CCOCC2)n1
 : nt	-28%
> CCc1c(C)sc(NC(=O)/C=C/C(=O)O)c1C(N)=O
 : i	0%
> O=C(NNC(=O)c1ccccc1Cl)c1cccnc1
 : i	-2%
> CSCC(=O)Nc1cc(C)on1
 : 0%	-14%
> CCCn1c(N2CCOCC2)nc2c1c(=O)[nH]c(=O)n2C
 : -28%	-11%
> O=C(Cc1cccs1)Nc1cccc(C(=O)Nc2ccco2)c1
 : i	-7%
> Oc1ccc(/C=N/NC(=S)N2CCOCC2)cc1
 : -8%	-2%
> Cc1cccc(Cn2c(N3CCc4ccccc4C3)nc3c2c(=O)[nH]c(=O)n3C)c1
 : nt	-8%
> Oc1ccccc1CNCCCN1CCOCC1
 : -15%	4%
> O=C(Nc1ccc(C(=O)NCc2ccccc2Cl)cc1)C1=CSCCO1
 : -10%	-16%
> Clc1ccc(C2CC(c3ccco3)n3ncnc3N2)cc1Cl (stereo not given)
 : ?	-25%
> Cc1ccsc1C(=O)C1CCCN(Cc2cnc(N3CCCC3)s2)C1 (stereo not given)
 : -11%	-7%
> CC(C)C[C@H]1C(=O)N2CCC[C@H]2[C@]2(O)O[C@](NC(=O)[C@@H]3C=C4c5cccc6[nH]c(Br)c(c56)CC4N(C)C3)(C(C)C)C(=O)N12 (stereo not given in full)
 : -21%	?
> Cc1ccc(NC(=O)c2nc(-c3ccncc3)no2)c(Cl)c1
 : -15%	-15%
> COc1cc(NC2c3ccccc3C(=O)N2c2cc(C)ccn2)cc(OC)c1OC (stereo not given)
 : -13%	13%
> COc1ccc(OC)c(C2N(c3ccccn3)C(=O)C3CCCN32)c1 (stereo not given)
 : -11%	-10%
> CC(C)C(NS(=O)(=O)c1cccc2nsnc12)C(=O)Nc1nc2ccc(Cl)cc2s1 (stereo not given)
 : -25%	?
> CS(=O)(=O)Nc1cccc(NC(=O)C2Cc3c(-c4cccc(C(N)=O)c4)ccnc3O2)c1 (stereo not given)
 : -7%	-6%
> CCN(CC)S(=O)(=O)c1ccc(N2CCOCC2)c(NS(=O)(=O)c2ccc(OC)cc2)c1
 : -20%	-8%
> COC(=O)C1=C(C)NC(=O)NC1c1cn(-c2ccccc2)nc1-c1ccc(OC)c(Br)c1 (stereo not given)
 : -11%	-15%
> Nc1cc(S(=O)(=O)c2ccc(N3CCCCC3)c(N)c2)ccc1N1CCCCC1
 : -16%	?
> O=S(=O)(NCc1ccccn1)c1ccc2c(c1)OCCO2
 : i	-2%
> Cc1cc(Br)cn2c(Cc3ccsc3)c(-c3cccc(Cl)c3)nc12
 : 1%	6%

Going on with the list:
Screens in order – Vaccinia mCherry	Vaccinia Venus
> COc1ccc(-c2cc(C(F)F)n3ncc(C(=O)NCC4CCCO4)c3n2)cc1 (stereo not given)
 : nt	-16%
> O=C(/C=C/c1ccco1)Nc1ccc(Oc2ccc(Cl)cc2)cc1
 : ?	?
> CCCCn1c(N)c(Sc2ccc([N+](=O)[O-])cc2)c(=O)[nH]c1=O
 : -6%	-13%
> COc1cc(F)cc(-c2ccc3c(c2)c(C#Cc2ccsc2)c(-c2cc(OC)cc(OC)c2)n3C)c1
 : i	-8%
> CCN(CC(=O)Nc1ccc(OC)cc1)C(=O)c1cccc(S(=O)(=O)N2CCN(c3ccccc3)CC2)c1
 : -14%	?
> N#Cc1c(-c2ccco2)cc(-c2ccc(F)cc2)nc1N
 : nt	-5%
> Cc1cccc(OCc2nc(CC(=O)Nc3ccc(Cl)cc3)cs2)c1
 : -14%	-10%
> Cc1sc2c(c1C)C(c1cccs1)=NCC(=O)N2CC(=O)NCc1cccs1
 : -9%	-4%
> Clc1ccc(NCc2cccnc2)c(Cl)c1
 : -26%	-16%
> CCOCCCn1c(SCC(=O)Nc2ccc(OC)cc2)nc2ccccc2c1=O
 : -14%	-3%
> COc1ccc(-n2cnnc2SC(C)C(=O)Nc2cccc([N+](=O)[O-])c2)cc1 (stereo not given)
 : -17%	-3%
> Cc1ccc(NC(=O)Cn2c(=O)oc3ccccc32)cc1Cl
 : -18%&-7%	-16%&-13%
> COc1cccc(C(=O)Nc2cnc(NC(=O)c3ccco3)cc2C)c1
 : -11%	-10%
> FC(F)(F)c1cc(C(F)(F)F)c2ccc(N/N=C/c3ccccc3)nc2n1
 : nt	-24%
> Cc1ccc(-c2onc(C)c2C)cc1S(=O)(=O)N1CCOc2ccc(Cl)cc21
 : -19%	-6%
> O=C(c1cccs1)N1CCN(c2ccc(F)cc2)CC1
 : nt	-17%
> CCCCNC(=O)CN1CCN(c2ncc(NC(=O)c3ccc(Cl)cc3)cc2C(=O)O)CC1
 : -7%	-5%
> O=C(N/N=C/c1ccc(-c2ccccc2C(=O)O)o1)c1cccs1
 : -5%	-9%
> Cc1ccc(N=c2oc3cc(O)ccc3cc2C(N)=O)cc1
 : ?	?
> CCCN(CCC)CCNC(=O)c1nn(C)c2c1CS(=O)(=O)c1ccccc1-2
 : -15%	-1%
> Cc1ccccc1-c1cnc(C(O)c2cccc(C)c2C)[nH]1 (stereo not given)
 : 28%	-8%
> CCOC(=O)c1ccccc1NC(=O)CSc1nnc(C)c(=O)[nH]1
 : 0%	2%
> COc1ccc(-c2nc(S(=O)(=O)c3ccc(C)cc3)c(N3CCCC3)o2)cc1
 : -9%	1%
> OC(CN1CCCCC1)c1ccc(Br)cc1 (stereo not given)
 : ?	-15%

Source: PubChem (National Center for Advancing Translational Sciences (NCATS))
